Six1-Eya2 blk: qHTS Assay for Inhibitors of the Six1/Eya2 Interaction; Homeobox protein SIX1 (Homo sapiens) + Protein phosphatase EYA2 (Homo sapiens), …; AlphaScreen GST-Six1/His-Eya2 binding, biochemical; stronger effect = lower value; control for the full effect not named in the record; activity change, % (no concentration beside the values); 360,000 tested, 0.56% active; in the data active = activity change below about -65%; inconclusive = about -30% to -65%; inactive = above about -30%; note: % is set by controls: 0 for no effect and ±100 for the full control effect; compound concentration not given in the record
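AlphaScreen with GST-Six1 and His-Eya2 (5X mix: 250 nM and 500 nM), glutathione donor and nickel acceptor beads; buffer 50 mM Tris pH 8.0, 300 mM NaCl, 1 mM TCEP; 1 h at 37 C in the dark.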
TRPML1 ag: qHTS for Agonists of the Human Mucolipin Transient Receptor Potential 1 (TRPML1). activation, % (concentration not given with the values). AID 624414, 2012. TRPML1-expressing cells, Ca2+ dye fluorescence, FDSS; host cell line not named in the record; reference of the full effect not given here. 410,000 tested, 0.12% active. Mucolipin-1 (Homo sapiens), Q9GZU1; in the data active = activation above about 50%; inconclusive = about 30% to 50%; inactive = below about 30%; note: 0% is about no effect; the text of the record puts the active cut at 80%
Target sequence (Q9GZU1 whole entry, looked up): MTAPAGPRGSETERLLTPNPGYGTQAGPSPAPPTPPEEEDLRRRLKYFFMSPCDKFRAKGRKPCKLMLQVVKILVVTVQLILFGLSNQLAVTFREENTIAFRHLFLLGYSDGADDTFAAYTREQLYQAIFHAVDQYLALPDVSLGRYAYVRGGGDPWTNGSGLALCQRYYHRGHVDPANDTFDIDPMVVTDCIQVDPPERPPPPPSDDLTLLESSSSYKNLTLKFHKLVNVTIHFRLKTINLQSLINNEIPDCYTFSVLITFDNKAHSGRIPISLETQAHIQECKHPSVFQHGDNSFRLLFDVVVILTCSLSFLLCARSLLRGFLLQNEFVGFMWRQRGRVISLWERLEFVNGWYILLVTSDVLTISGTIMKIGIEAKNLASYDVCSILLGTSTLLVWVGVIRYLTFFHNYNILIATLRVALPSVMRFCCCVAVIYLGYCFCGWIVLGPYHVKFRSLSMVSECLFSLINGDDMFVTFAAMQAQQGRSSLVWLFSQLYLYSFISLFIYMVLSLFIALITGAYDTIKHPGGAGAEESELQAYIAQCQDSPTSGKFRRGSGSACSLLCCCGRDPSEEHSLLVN
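Agonist activity was taken from a 110 s kinetic Ca2+ dye read on the FDSS after pinning compounds onto TRPML1-DL cells. The cells were seeded at 1,500/well with Tet inducer, incubated about 16 h, then dye-loaded at room temperature.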
TRPML1 blocker: qHTS for Inhibitors of the Human Mucolipin Transient Receptor Potential 1 (TRPML1); Mucolipin-1 (Homo sapiens), Q9GZU1; TRPML1-inducible cells, Ca2+ dye fluorescence, FDSS; stronger effect = lower value; inhibition of EC80 agonist-evoked calcium signal; activity change, negative = inhibition, % (test concentration not listed); 390,000 tested, 0.02% active; AID 624415, 2012; in the data active means activity change below about -50%; inconclusive means about -30% to -50%; inactive means above about -30%;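 note: stimulus is agonist 54-4 at its EC80 concentration; % is set by controls: 0 for no effect and ±100 for the full control effect; compound concentration not given in the record; the text of the record puts the active cut at -80%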
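Tet-induced TRPML1-DL cells loaded with Ca8 no-wash calcium dye were read kinetically on FDSS. Compound addition was followed by EC80 agonist 54-4 (4 uM final); inhibition was read over 110 s.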
D2 agonist: Beta-Arrestin HTS for Positive Allosteric Modulators of the Human D2 Dopamine Receptor: Agonists | DiscoveRx PathHunter D2 beta-arrestin, luminescence, 90 min; 100% = 57 uM dopamine signal | activation, % (concentration not given with the values) | 360,000 tested, 0.084% active | AID 624465, 2012; in the data active = activation above about 40%; inconclusive = about 15% to 40%; inactive = below about 15%; note: compound concentration not given in the record; the text of the record calls up to 30% inactive
Target sequence (P14416 whole entry, looked up): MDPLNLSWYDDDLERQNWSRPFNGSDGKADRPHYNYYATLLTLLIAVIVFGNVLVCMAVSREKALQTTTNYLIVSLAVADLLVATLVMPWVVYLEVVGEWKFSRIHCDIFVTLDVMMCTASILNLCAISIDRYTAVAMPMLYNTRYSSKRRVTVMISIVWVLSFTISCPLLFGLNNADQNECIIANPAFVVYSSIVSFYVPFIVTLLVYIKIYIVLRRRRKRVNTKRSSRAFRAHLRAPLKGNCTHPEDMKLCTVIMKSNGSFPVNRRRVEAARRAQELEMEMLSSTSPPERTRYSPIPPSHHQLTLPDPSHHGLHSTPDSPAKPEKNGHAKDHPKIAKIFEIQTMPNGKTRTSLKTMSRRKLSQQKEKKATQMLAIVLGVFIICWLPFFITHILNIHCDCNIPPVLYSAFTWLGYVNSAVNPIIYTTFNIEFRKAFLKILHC
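Agonist mode: compounds alone added to overnight-plated D2 PathHunter cells for 90 min at 37 C, with 57 uM final dopamine (EC100) defining full response. Beta-arrestin recruitment detected by chemiluminescent reagent, read after 1 h at ambient temperature.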
PINK1 expr mod: A Quantitative High throughput Screen to Identify Chemical Modulators of PINK1 Expression; 410,000 tested, 0.2% active; Potency, µM (doses to about 76.6 µM), inactives show at the top dose activation (PINK1 increase), actives largely listed as activators; PINK1 immunofluorescence, high-content cytometry, 24 h; active = well fitted activation curve with a large enough effect; inconclusive = small, poorly fitted or top-dose-only effect; inactive = flat fitted curve, though single readings scatter; cell line not stated here;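 note: potency is the fitted concentration of half-maximal effect; % of control where 0% means no effect; nearly all actives have a fitted effect of over 65% in size; a mitochondrial uncoupler was the plate control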
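Fluorescence from anti-PINK1 antibody, together with nuclear and cell stains, was scanned on a laser-scanning cytometer. Before staining, stable-line cells were incubated 24 hours with compounds at 5 concentrations; primary antibody 12 h at 10 degrees C.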
D2 potentiator: Beta-Arrestin HTS for Positive Allosteric Modulators of the Human D2 Dopamine Receptor: Potentiators; D(2) dopamine receptor (Homo sapiens), P14416; DiscoveRx D2 beta-arrestin cells, luminescence, 90 min; 100% = 57 uM dopamine signal; potentiation, % (concentration not given with the values); 360,000 tested, 0.23% active; AID 624464, 2012; active = potentiation of 50% or more; inconclusive = 30% to 50%; inactive = 30% or less;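 note: compound concentration not given in the record; tested on top of an EC20 dose of dopamine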
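PathHunter D2 cells, attached overnight at 37 deg C, received compound in DMSO plus dopamine at EC20 (50 nM final) for 90 min at 37 deg C. Beta-arrestin recruitment was read as luminescence after 1 h with detection reagent at ambient temperature.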
An asterisk follows results filed as active; ? = inconclusive; . = not tested or not shown; & = joins results of further samples; [ ] = dose if it differs, or a comment. Not a hit list; about 1% have a hit in one of these screens.

SMILES	Six1-Eya2 blk	TRPML1 ag	TRPML1 blocker	D2 agonist	PINK1 expr mod	D2 potentiator
C[C@H](O)[C@@H]1C(=O)N2CCc3ccc(N4CCN(C)CC4)cc3[C@@H]2C[C@@H]1N(C)C(=O)c1ccc(C#N)cc1	1.5	2.5	-12.0	-0.4	-0.1%	0.5
CC1(C)CC(Cc2ccc(C(=O)c3ccccc3)cc2)N(C(=O)OC(C)(C)C)N1 (stereo unspecified)	2.4	0.5	41.4	-9.1	1.4%	-7.0
CC(=O)Nc1nc(C)c(Oc2ccc(C)cc2)c(=O)[nH]1	-4.5	-1.0	21.0	-2.0	1.9%	-3.5
FC(F)(F)c1cc(Cl)c2nc(-c3ccccc3)c(Cc3ccsc3)n2c1	21.8	1.1	.	.	4.7%	.
Cc1ccc(-c2nnc(/C=C/c3ccccc3)o2)cc1	1.5	1.4	-10.1	0.1	3.8%	-8.2
CC1CN(C(=S)Nc2ccc(Cl)cc2)CC(C)O1 (stereo unspecified)	2.7	0.2	9.2	-1.2	0.7%	-1.7
Cn1c(=O)c(C(=O)COc2ccc(F)cc2Cl)c(N)n(Cc2ccccc2)c1=O	-7.4	0.1	-11.3	0.6	1.6%	-8.1
CCN(Cc1ccccc1)c1ccc(/C=N/N2CCOCC2)cc1	?	0.3	-2.6	-3.7	3.2%	-2.9
CC(=O)Nc1ccc(S(=O)(=O)N2CCN(c3nc4ccccc4n3CC(C)C)CC2)cc1	-6.2	0.5	-11.2	-0.2	3.7%	?
CCOc1c(O)ccc(/C=C2\SC(=S)NC2=O)c1[N+](=O)[O-]	-27.6	-0.2	8.2	-6.0	-2.3%	-15.0
CN(C)c1nc(N/N=C/c2c[nH]c3ccccc23)nc(N2CCOCC2)n1	-10.7	0.3	-9.3	-3.4	-0.2%	-8.9
CC(=O)Nc1cccc(-c2nc3ccccc3o2)c1	-7.5	-0.6	-9.3	6.0	0.0%	-6.2
Nc1ccn([C@@H]2O[C@H](C(=O)Nc3cc(C(F)(F)F)cc(C(F)(F)F)c3)[C@@H](O)[C@H]2O)c(=O)n1	2.9	-0.3	.	-0.3	0.0%	-2.4
CN(C)c1ccc(NC(=S)NCC2CCCO2)cc1 (stereo unspecified)	-18.9	-0.6	25.5	-2.9	1.6%	-5.1
CCCCCCNc1c([N+](=O)[O-])c(=O)sc2ccccc12	0.7	0.4	4.8	-2.5	6.8%	-13.9
COc1ccc2nc(C(c3ccc(C)cc3)n3c(-c4ccccc4Br)nc4ccccc43)[nH]c2c1 (stereo unspecified)	-11.5	-0.2	.	5.8	9.9%	1.2
CCOC(=O)N1CCC(N2Cc3cccc(C(=O)Nc4ccc(OCC)cc4)c3C2=O)CC1	0.9	-0.5	10.6	2.7	2.6%	-1.9
CCn1c(CNc2nc3ccccc3n2C(C)C)nc2ccccc21	1.9	1.0	1.5	-2.9	2.3%	-14.8
CC12CC(c3ccccc3O1)N(C(=O)c1ccco1)C(=O)N2c1ccccc1 (stereo unspecified)	-1.4	1.3	19.9	-0.6	1.4%	-11.9
CCOC(=O)C(C)n1cnc2c(nnn2Cc2ccc(C)cc2)c1=O (stereo unspecified)	2.8	0.1	8.2	-1.1	7.2%[38.3 µM]	-2.1
CCOC(=O)Cn1nnnc1C(CC)N(Cc1cccs1)Cc1cc2cc(C)ccc2[nH]c1=O (stereo unspecified)	-4.5	1.8	12.9	-1.1	-0.3%	-10.8
CCn1c(=O)cc(OCC(=O)N2CCc3ccccc32)c2ccccc21	7.7	-0.1	-4.2	-3.1	20.0%	-1.2
CCOC(=O)C(C(C)=O)=C1SC2CS(=O)(=O)CC2S1 (stereo unspecified)	2.7	0.3	3.9	-1.1	.	-5.1
CN(C)S(=O)(=O)c1cccc(NC(=O)c2cc(-c3cccs3)nn2-c2ccccc2)c1	?	1.2	16.2	-1.1	4.0%	-16.6
OCCCn1c(C2CCCN2c2nc(-c3ccc(Cl)cc3)cs2)nc2cc(Cl)c(Cl)cc21 (stereo unspecified)	3.9	-0.1	-8.3	-3.5	3.9%	-12.6
COc1ccc([N+](=O)[O-])c(OC)c1C(=O)NC(=O)Nc1nc(C)nc(C)n1	1.4	0.7	15.5	-2.4	-0.1%	-10.8
Cc1cc(Br)cc(C)c1NC(=O)c1ccccc1[N+](=O)[O-]	10.1	0.5	-9.7	-1.3	16.4%	12.9
COc1ccc(C(=O)c2oc3ccccc3c2NC(=O)COc2cccc(C)c2C)cc1	.	0.4	0.2	.	-1.8%	.
Cc1ccc(Cn2ncc3c(N4CCN(c5ccccc5C)CC4)ncnc32)cc1	-4.9	1.5	-18.0	-2.2	1.6%	-3.9
COc1ccc(NC(=O)c2cccnc2)c(OC)c1	2.9	2.4	-4.0	-1.2	-0.6%[38.3 µM]	1.3
COc1ccccc1-n1cnnc1SCC(=O)Nc1cc(C(C)(C)C)nn1-c1ccccc1	0.3	-1.4	-9.7	-0.2	1.9%	-0.7
CCOC(=O)[C@]12CCCC=C1N(Cc1ccc(Cl)cc1Cl)C(=O)[C@H](CC(=O)NCCCCc1ccccc1)C2	-12.4	-0.5	.	.	1.9%	.
COc1cc(OC)cc(-c2nc3nc(C)c(CCC(=O)Nc4ccccc4)c(C)n3n2)c1	.	-0.2	-13.4	.	1.5%	.
O=C(CN(c1ccc(F)cc1)S(=O)(=O)c1ccccc1)NC1CCCCCC1	6.0	1.9	4.7	-1.5	13.3%	9.4
COc1cc(C2C(C(=O)c3ccc(C)o3)=C(O)C(=O)N2c2cc(C)on2)cc(Br)c1O (stereo unspecified)	-0.7	2.0	7.2	0.3	1.1%	3.1
CCc1ccc(OCC(=O)Nc2cc(S(=O)(=O)CC)ccc2O)cc1	5.1	-0.4	-4.2	-3.5	4.0%	-34.1
COc1cc(OC)cc(C(=O)Nc2ccc(NC(=O)c3ccco3)c(Cl)c2)c1	0.7	3.2	-4.5	0.0	0.8%	6.7
COc1ccc(S(=O)(=O)NNC(=O)Nc2ccc(F)cc2F)c(OC)c1	5.5	0.4	0.0	-0.6	-0.6%	-14.2
COC(CNC(=O)c1ccc2nc3ccccc3c(=O)n2c1)OC	?	-0.6	8.3	-0.9	1.6%	4.8
CCCS(=O)(=O)c1c(Nc2ccccc2C)sc(C(=O)c2ccccc2)c1N	.	4.0	6.1	.	0.1%	.
Cc1ccc(C(=O)COC(=O)c2cc(Cl)nc3ccccc23)cc1C	5.6	-0.3	4.8	-2.9	0.9%[38.3 µM]	-3.9
Cc1ccc(-c2nc3cc(C)ccc3o2)cc1	2.5	0.9	-24.5	-3.6	-0.7%	-2.5
CN(CC(=O)Nc1ccc(Cl)c(S(=O)(=O)N2CCOCC2)c1)C(=O)c1cccs1	-13.0	0.4	-0.5	-1.7	4.6%	-19.1
C[C@@H]1CN([C@H](C)CO)C(=O)CCCn2nncc2CO[C@@H]1CN(C)C(=O)Nc1ccc(N2CCCCC2)cc1	4.2	-0.5	13.8	-6.0	4.2%	-6.8
O=C(CC1C(=O)NCCN1Cc1ccc(-c2ccccc2)cc1)NCCOc1cccnc1 (stereo unspecified)	4.6	-0.3	0.8	0.3	1.3%	-4.4
CC(=O)Nc1ccc(S(=O)(=O)N2CCN=C2SCc2cccnc2)cc1	1.4	0.3	2.1	1.3	2.0%	-6.5
C=CCOC(=O)C1=C[C@@H](c2ccccc2)[C@H](CCCO)[C@@H](OCC)O1	5.7	2.8	15.9	-0.4	3.2%	-6.5
CC(C)(C)Cc1nnc(NC(=O)c2ccc([N+](=O)[O-])cc2)s1	14.9	0.3	-0.7	7.6	-0.9%	5.7
O=C(N[C@H]1C/C=C\C[C@H](CC(=O)N(CCO)Cc2ccccc2)C(=O)NC[C@H](c2ccccc2)OC1=O)OCC1c2ccccc2-c2ccccc21	9.1	0.4	2.6	-4.1	0.6%	-15.0
COc1ccc(-c2nnn(CC(=O)NCCc3ccc(OC)c(OC)c3)n2)cc1	-1.4	0.4	3.2	1.4	-0.3%	2.6
COc1ccc(NC(=O)N2CCCC2C(=O)Nc2ccc(C)cc2C)cc1 (stereo unspecified)	-0.4	-0.7	6.3	-0.8	-2.0%	-6.6
COc1ccc(C2/C=C\CN(C(=O)C3CCCC3)CC(=O)N2Cc2ccc(F)cc2)cc1 (stereo unspecified)	-3.5	1.2&3.4	-4.5&1.9	6.2	-0.8%	-6.6
O=C(Cc1ccccc1)Nc1ccccc1C(=O)Nc1ccc(C(=O)O)cc1	5.6	-0.4	-0.6	-3.0	2.5%	-0.5
S=c1[nH]nc(-c2ccco2)n1/N=C/c1ccc(Br)s1	-9.7	0.7	6.7	-5.3	-20.4%[38.3 µM]	-9.6
O=C(NCCSc1ccc(Br)cc1)c1ccccc1	11.0	1.6	11.2	6.5	1.3%	-8.0
Cc1ccc(C2C(C(=O)O)c3ccccc3C(=O)N2C)o1 (stereo unspecified)	6.4	0.8	10.6	-0.7	.	1.1
CCC(C)NS(=O)(=O)c1ccc(NS(C)(=O)=O)cc1 (stereo unspecified)	26.9	-0.6	5.9	-1.7	1.7%	6.7
Fc1cccc(NCc2cccn2-c2nnc(N3CCOCC3)s2)c1	.	2.1	23.7	.	4.3%	.
COC(=O)/C=C1\S/C(=N/NC(=O)c2ccccc2)NC1=O	-1.4	0.2	-1.3	-4.4	1.7%	-16.5
CCC(=O)N(C)C[C@H]1Oc2ncc(C#Cc3ccncc3)cc2C(=O)N([C@@H](C)CO)C[C@@H]1C	4.3	-0.3	20.0	-8.2	0.7%	-0.4

Compound profiles, from the list above. Order of values: Six1-Eya2 blk | TRPML1 ag | TRPML1 blocker | D2 agonist | PINK1 expr mod | D2 potentiator
`COC(=O)/C=C1\S/C(=N/NC(=O)c2ccccc2)NC1=O` is entered as -1.4 | 0.2 | -1.3 | -4.4 | 1.7% | -16.5
`O=C(NCCSc1ccc(Br)cc1)c1ccccc1` is entered as 11.0 | 1.6 | 11.2 | 6.5 | 1.3% | -8.0

Carrying on.
SMILES	Six1-Eya2 blk	TRPML1 ag	TRPML1 blocker	D2 agonist	PINK1 expr mod	D2 potentiator
CN(NC(=O)CN1C(=O)c2ccccc2C1=O)C1=NS(=O)(=O)c2ccccc21	4.2	0.2	-3.9	-3.0	2.7%	-2.1
CC(=O)c1ccc(OC(C)C(=O)NC2CCCCC2C)cc1 (stereo unspecified)	-2.0	-0.4	-7.5	-7.5	-1.2%	-25.4
O=S(=O)(c1ccc2ccccc2c1)N(CC(O)COCc1ccco1)c1ccccc1 (stereo unspecified)	-17.2	2.5	8.2	-3.2	-3.0%[38.3 µM]	-18.4
OC(c1ccc(F)cc1)c1nc(-c2cnc3ccccc3c2)cs1 (stereo unspecified)	0.1	0.2	.	7.6	1.0%	-0.2

Screening data from PubChem BioAssay.
